AF4-AF9 inh: blocks AF4 peptide binding to human AF9; P42568; AlphaScreen, biotin-AF4 peptide binding to FLAG-AF9; inhibition, % at 10 µM; 0.47% of 350,000 active; AID 651704;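 active = every replicate reaching a set inhibition limit, whatever the replicate mean, cut at about 25% in these data; inconclusive = mean inhibition reaches that limit but some replicates miss it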;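 also: 0% = plate neutral control median and 100% = total signal loss; the record names both 10 and 1 µM as test concentration; the first replicate is given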
Target sequence (P42568 whole entry, looked up): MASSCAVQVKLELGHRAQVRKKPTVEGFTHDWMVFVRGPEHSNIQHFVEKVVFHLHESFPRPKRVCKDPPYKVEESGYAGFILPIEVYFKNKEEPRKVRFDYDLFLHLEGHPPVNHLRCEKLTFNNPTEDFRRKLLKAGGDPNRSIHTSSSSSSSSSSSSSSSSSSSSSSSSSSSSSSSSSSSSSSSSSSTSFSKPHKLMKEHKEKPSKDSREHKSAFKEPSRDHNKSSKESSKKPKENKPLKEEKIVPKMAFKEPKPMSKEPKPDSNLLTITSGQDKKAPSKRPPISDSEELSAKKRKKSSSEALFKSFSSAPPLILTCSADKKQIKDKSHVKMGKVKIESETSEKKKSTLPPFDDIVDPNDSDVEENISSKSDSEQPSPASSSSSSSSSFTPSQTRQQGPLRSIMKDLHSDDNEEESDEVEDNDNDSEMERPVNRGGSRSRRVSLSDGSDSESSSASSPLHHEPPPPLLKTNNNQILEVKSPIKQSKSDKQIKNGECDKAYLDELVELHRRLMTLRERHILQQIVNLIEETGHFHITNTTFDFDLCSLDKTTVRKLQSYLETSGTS
E coli growth: E. coli growth inhibition; AID 1053175; Escherichia coli growth, OD600, 23 h; stronger effect = lower value; 0.21% of 330,000 active; OD600 absorbance (test concentration not listed);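 active = OD600 absorbance below the run mean of sample wells minus 3.6 SD, in any replicate, cut at about 0.56 in these data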;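 also: stock transfer was 300 nL into about 60 µL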
Vif A3G: HIV-1 Vif–A3G interaction blockers – biochemical, TR-FRET, GST-Vif 1-94, biotin-A3G peptide, dose response retest, primary screen (AID 1117319); 0.57% of 260,000 active; one-dose inhibition, %; IC50 in µM for titrated hits; TR-FRET GST-Vif / biotin-A3G peptide binding; higher % means a stronger effect; test concentration not given here; strong numbers were not always called active;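 active = above the screen mean plus three standard deviations and confirmed in dose response; inconclusive = results disagree or hit not tested in dose response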;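 also: Vif residues 1-94 fused to GST binding biotinylated APOBEC3G peptide 110-148; 0% = full assay without inhibitor and 100% = GST in place of GST-Vif; retest series ran down from 100 µM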
HNF4A DNA FP: change in binding of human HNF4 alpha to DNA | P41235 | HNF4a-FITC DNA binding, fluorescence polarization, 1 h | activity change, % at 10 µM | 0.3% of 360,000 active | AID 1224865; in the data active = activity change above about 30%, passing the limit was not always enough;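 also: controls were the assay level and a saturating level of protein; the project sought stronger binding though the title names inhibitors; some compounds called inactive have numbers as strong as hits; positive values seem to mean higher polarization but the record does not say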
FGF22 binding: shifts melting point of recombinant human FGF22; Q9HCT0; calls only at 9.99 µM; recombinant FGF22 thermal shift, SYPRO orange fluorescence; percent of sucrose octasulfate shift, DMSO zero; 1.5% of 340,000 active;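 active = melting point raised past a set limit in the mean and every replicate; inconclusive = no clear call; three in four hits are not shown here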
Target sequence (Q9HCT0 whole entry, looked up): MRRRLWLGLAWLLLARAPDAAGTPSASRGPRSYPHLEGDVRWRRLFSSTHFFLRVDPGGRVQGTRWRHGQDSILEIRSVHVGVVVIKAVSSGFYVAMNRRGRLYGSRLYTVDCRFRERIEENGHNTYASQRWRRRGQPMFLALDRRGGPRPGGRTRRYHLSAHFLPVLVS
RanGTP-Impb inh: inhibitors of RanGTP-importin-beta interaction, primary screen, biochemical, FRET, CFP-Ran, YFP-importin-beta, homogeneous; cell-free CFP-Ran/YFP-importin-beta FRET ratio; AID 2216; inhibition, % (no concentration beside the values); 1.1% of 300,000 active;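 active = most replicates above 15%; inconclusive = exactly half above 15%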;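 also: 0% = DMSO wells and 100% = Ran loaded with GDP instead of GTP; wells of about 40 µL received 100 nL stock; the first replicate is given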
UCH37 inh: blocks the human deubiquitinase UCH37. Q9Y5K5. purified proteasome/UCH37, Ub-AMC cleavage fluorescence. inhibition, % (test concentration not listed). 0.33% of 330,000 active. AID 588478;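 active = mean of two replicates above 20%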;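 also: 0% = compound-free wells with enzyme and 100% = wells lacking proteasome; stock transfer was 100 nL into about 20 µL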
Target sequence (Q9Y5K5 whole entry, looked up): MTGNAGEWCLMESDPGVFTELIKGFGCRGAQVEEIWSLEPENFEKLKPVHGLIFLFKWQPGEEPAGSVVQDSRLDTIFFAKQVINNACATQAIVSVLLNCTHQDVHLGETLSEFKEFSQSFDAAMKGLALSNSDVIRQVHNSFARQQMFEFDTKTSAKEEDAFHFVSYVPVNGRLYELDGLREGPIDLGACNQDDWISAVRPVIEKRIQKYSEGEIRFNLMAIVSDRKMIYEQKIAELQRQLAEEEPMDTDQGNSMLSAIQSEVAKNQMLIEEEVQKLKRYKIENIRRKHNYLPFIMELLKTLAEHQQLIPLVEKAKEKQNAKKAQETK
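Signal – fluorescence, ex 355 nm, em 460 nm · System – Proteasome-bound UCH37 · Input – 0.15 nM proteasome as dispensed · Timing – 30 min preincubation with enzyme, 25 min cleavage at room temperature · Read-out basis – percent inhibition of cleavage signal versus uninhibited and no-proteasome wells · Medium – Tris-HCl pH 7.4 with ATP-MgCl2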
* hit, by the source's call; i = inactive; ? = inconclusive; . = no result given; & = joins results of further samples. Not all compounds are listed; the hit share may differ from the screen's.

SMILES | AF4-AF9 inh | E coli growth | Vif A3G | HNF4A DNA FP | FGF22 binding | RanGTP-Impb inh | UCH37 inh
CCOc1cc(N2CCOCC2)c(OCC)cc1NC(=O)c1ccc(S(=O)(=O)N(C)C)cc1 | -33 | 0.69 | . | -1.4 | i | -2.1 | 3.3
CN(CC(=O)Nc1cccc(Cl)c1)S(=O)(=O)c1ccc2[nH]c(=O)oc2c1 | -6.0 | 0.66 | -2% | -7.1 | i | 0.4 | 2.8
O=C(CSc1nccn1-c1ccccc1)NCc1ccc(F)cc1 | 1.0 | 0.64 | 24% | -1.4 | i | -3.6 | 2.3
Cc1scc(C(=O)N/N=C/c2ccc(OC(C)C)cc2)c1C | . | . | -7% | 3.7 | . | 2.3 | .
O=S(=O)(N1CCCCCC1)N1CCNCC1 | -0.6 | 0.64 | -7% | 2.6 | i | 0.1 | 1.9
CCCNC(=O)CSc1nc(COc2ccccc2)nc2ccccc12 | -3.6 | 0.68 | -35% | -0.3 | . | 2.2 | 4.7
Cc1cccc(C)c1NC(=O)CNC(=O)C(Cc1ccccc1)NC(=O)c1ccccc1 (centres undefined) | 1.0 | 0.66 | . | -6.2 | i | -0.9 | 1.6
O=C(CCCn1c(=S)[nH]c2cc3c(cc2c1=O)OCO3)NCCc1ccccc1Cl | -14 | 0.73 | -9% | 0.6 | i | 4.1 | 2.3
COc1ccc(CNC(=O)CCCCCNC(=O)N2CCn3c2nc2ccccc23)cc1 | 1.3 | 0.69 | . | 0.4 | i | 2.8 | 4.5
Cc1ccc2c(c1)NC(=O)C(CC(=O)Nc1ccc(Br)c(C)c1)O2 (centres undefined) | -1.5 | 0.68 | 2% | -1.2 | i | -1.8 | 0.3
COc1ccc(C=O)cc1COc1c(F)c(F)cc(F)c1F | . | 0.69 | -2% | -0.6 | . | -2.6 | 3.1
NC(=O)CSc1nnc(Cc2ccc3c(c2)OCO3)o1 | -2.1 | 0.72 | 1% | 2.9 | . | -1.8 | -2.3
Nc1cc(=O)[nH]c(SCc2csc(-c3ccccc3)n2)n1 | 2.1 | 0.74 | -4% | 1.7 | i | -1.3 | -2.1
O=C(O)c1ccccc1C(=O)NC1=NN(c2ccccc2)CC1 | 1.4 | 0.66 | -9% | -0.5 | i | -0.9 | 5.8
COc1ccccc1C(=O)COC(=O)c1ccc(Cl)nc1 | -10 | 0.69 | 14% | -1.1 | i | . | 1.0
CNc1cnc(-c2ccc(F)c(F)c2F)cn1 | -6.7 | . | . | -4.0 | i | . | .
COc1ccc(NS(=O)(=O)c2cc(NC(=O)Cc3c(F)cccc3Cl)ccc2OC)cc1 | -6.6 | 0.73 | 6% | 1.1 | i | . | 2.3
Nc1nn2c(-c3ccccc3)cc(=O)[nH]c2c1N=Nc1ccc(Br)cc1 | -0.1 | 0.73 | 5% | -0.1 | i | . | 7.7
O=C(CC1C(=O)NCCN1Cc1ccc(-c2ccccc2)cc1)NCCc1ccccn1 (centres undefined) | -4.8 | 0.71 | 8% | -0.7 | i | -1.7 | 1.7
C=C1CCN([C@@H](CC(C)C)C(=O)N2CCCC2)S(=O)(=O)c2ccccc21 | 2.5 | . | . | 0.6 | i | -12 | -1.9
CCOC(=O)CNC(=O)CSc1nnc(Cn2c(=O)sc3ccccc32)n1C | -3.4 | 0.71 | 21% | 2.1 | i | -3.4 | 2.6
CC(C)c1c(O)c2c(n(-c3ccccc3)c1=O)CCCC2 | . | 0.67 | 0% | -1.5 | . | 2.5 | 5.0
CCCC(=O)Nc1ccc(NC(=O)C2CC2)cn1 | . | . | 0% | -2.7 | . | -2.4 | .
O=c1[nH]c(O)c(C=Nc2ccc(Cl)cc2Cl)c(=O)[nH]1 | 2.8 | . | 16% | 2.5 | i | -0.4 | .
CSc1nc2c(c(=O)[nH]c(=O)n2C)n1Cc1ccccc1Cl | -2.3 | 0.65 | . | 4.2 | i | ? | 1.4
Cc1ccc(NC(=O)CCCn2c(=O)oc3ccccc32)c(O)c1 | 1.5 | 0.78 | -8% | 1.3 | i | -3.6 | 1.3
CCCCNC(=O)C[C@@H]1C[C@@]2(C(=O)OC)CC(C)(C)CC=C2N(Cc2ccc3c(c2)OCO3)C1=O | -3.9 | . | . | 0.1 | i | . | .
CCC1(c2ccc(Cl)cc2)NC(=S)N(c2ccc(C)c(C)c2)N1 (centres undefined) | . | 0.66 | -8% | 4.5 | i | 2.0 | 4.7
O=C(Cc1ccccc1)N/N=C/c1ccc2c(c1)OCO2 | -2.7 | . | 11% | 0.7 | i | 2.8 | .
CCCC(OC(=O)CN1C(=O)COc2ccccc21)C(=O)NC1CCCC1 (centres undefined) | -37 | 0.7 | -2%&10% | 2.2 | i | 3.1 | 3.0
CCNC(=S)N1CCC(c2nc3ccccc3s2)CC1 | . | 0.69 | 1% | -2.0 | . | -1.5 | 2.3
O=C(CN1C(=O)NC2(CCCC2)C1=O)OCCOc1ccc(Cl)cc1 | -29 | 0.69 | 0% | 0.2 | i | -5.3 | -0.3
COc1cccc(C2CC(=O)C3=C(C2)Nc2ccccc2N(C(=O)CCC(=O)O)C3c2ccc(F)cc2)c1 (centres undefined) | 0.2 | 0.69 | -12% | 7.2 | i | -4.3 | -7.3
Cc1ccc(/C=N/n2cnc3sc(-c4ccccc4)cc3c2=O)o1 | . | . | 5% | -0.2 | . | 1.9 | .
O=C(NN1CCOCC1)c1cn(-c2ccccc2)nc1-c1cccs1 | -2.8 | 0.66 | 13% | 1.6 | i | 9.2 | 1.4
O=C(NCCSc1ncc(-c2ccccc2)[nH]1)c1ccco1 | 5.1 | 0.69 | -3% | 2.9 | i | 3.5 | 1.5
CC1(C(=O)NS(=O)(=O)c2ccc(Cl)cc2)CCN1C(=O)Cc1cccs1 (centres undefined) | -1.5 | . | . | 3.5 | i | . | .
C[C@@H]1CN([C@@H](C)CO)C(=O)CCCn2nncc2CO[C@@H]1CN(C)S(=O)(=O)c1ccc(-c2ccccc2)cc1 | 3.7&3.4&3.0 | . | 0% | 1.6 | i | . | .
CCCCCC(=O)N1C[C@@H](n2cc(COC(=O)c3ccccc3)nn2)[C@H](O)C[C@@H]1c1ccc(OC)cc1 | -2.4 | . | 2% | 1.3 | i | . | .
Cc1cnc(C(=O)Nc2ccc(OC(F)(F)F)cc2)cn1 | -0.1 | 0.65 | 5% | -3.0 | i | 0.1 | 0.9

Entries above that have a COOH group (two):
SMILES | AF4-AF9 inh | E coli growth | Vif A3G | HNF4A DNA FP | FGF22 binding | RanGTP-Impb inh | UCH37 inh
O=C(O)c1ccccc1C(=O)NC1=NN(c2ccccc2)CC1 | 1.4 | 0.66 | -9% | -0.5 | i | -0.9 | 5.8
COc1cccc(C2CC(=O)C3=C(C2)Nc2ccccc2N(C(=O)CCC(=O)O)C3c2ccc(F)cc2)c1 (centres undefined) | 0.2 | 0.69 | -12% | 7.2 | i | -4.3 | -7.3

(further entries)
SMILES | AF4-AF9 inh | E coli growth | Vif A3G | HNF4A DNA FP | FGF22 binding | RanGTP-Impb inh | UCH37 inh
CN1C(=O)C(N=Nc2ccccc2C(=O)O)N(C)C1=S (centres undefined) | 0.2 | . | 30% | 14 | i | -11 | .
CC1CCC(NC(=O)Cn2cc3c(n2)CCCC3)CC1 (centres undefined) | -4.2 | 0.73 | 2% | -3.4 | i | -0.7 | 2.2
CCN(CC)C(=O)c1c([N+](=O)[O-])c(C(C)(C)C)nn1C | 3.3 | 0.69 | 6% | 0.1 | i | -3.5 | 1.7
COc1ccc(C(=O)N2CCOC2CNC(=O)C(=O)NCc2ccc(C)cc2)cc1 (centres undefined) | -0.2 | . | -4% | 1.8 | i | . | .
O=C(C1=C[C@H](c2ccc(Br)cc2)C[C@H](OCc2ccc(CO)cc2)O1)N1CCN(Cc2ccc3c(c2)OCO3)CC1 | -1.6 | . | -9% | 3.1 | i | -1.0 | -1.1
CCOC(=O)N1CCN(CC(O)COc2ccc(OC)cc2C(C)(C)C)CC1 (centres undefined) | 2.8 | 0.69 | -6% | -1.2 | i | -3.5 | 2.6
CCOC(=O)c1c(NC(=O)COC(=O)c2nc(Cl)ccc2Cl)sc(C(=O)N(C)C)c1C | 2.1 | 0.7 | . | 3.7 | i | . | 3.9
CN1OC[C@@H]2CN(C(=S)Nc3ccc(C#N)cc3)[C@H](c3ccc(N4CCCCC4)cc3)C[C@@H]21 | 7.3 | . | . | 3.6 | i | . | .
CC1CC(=O)NN=C1c1ccc(NCCO)c([N+](=O)[O-])c1 (centres undefined) | . | 0.72 | 21% | 0.8 | . | -1.2 | 10
Cc1nn(-c2ccc(F)cc2)c2sc(C(=O)O)cc12 | 12 | 0.69 | 21% | -1.2 | i | 0.8 | 1.4
CCc1cccc2c(C(=O)C(NC(C)CC)c3ccccc3)c[nH]c12 (centres undefined) | 8.7 | 0.64 | 3% | -0.7 | i | -0.9 | -1.7
CC(=O)OC(C(=O)NC1CCCCC1)c1ccccc1F (centres undefined) | -6.8 | 0.66 | 3% | 3.3 | i | 0.0 | 3.3
CC(=O)Nc1ccc(NC(=O)/C=C/c2ccc(Cl)cc2)cc1 | -4.2 | 0.74 | 24% | 3.0 | i | -4.3 | 2.7
CN(Cc1nc2ccccc2c(=O)[nH]1)C(=O)c1cccc(S(=O)(=O)N2CCCC2)c1 | -0.1 | 0.67 | . | -1.1 | i | . | 0.3
O=C(Nc1cccc(F)c1)C1CCCN1S(=O)(=O)c1cccc2cccnc12 (centres undefined) | -74 | 0.74 | -1% | 4.9 | i | 4.1 | 7.2
O=C(CSc1nnc(-c2cccc(Cl)c2)o1)Nc1ccc2c(c1)OCCO2 | . | 0.67 | 12% | -0.9 | . | . | 0.9
CCCN1C=CC(=CC=C(C#N)C#N)C=C1 | 7.5 | 0.67 | 5% | 121 | i | 34* | 38*
Cc1cc(C)cc(N(C(=O)c2ccc(Br)o2)C2C=CS(=O)(=O)C2)c1 (centres undefined) | -9.3 | 0.73 | 6% | 4.0 | i | . | 2.7
CSc1cccc(NC(=O)CN(c2cc(C)ccc2C)S(C)(=O)=O)c1 | . | 0.64 | 6% | 1.0 | . | -3.2 | 6.3
CCn1c(=O)cc(O)c2ccccc21 | . | 0.74 | 0% | -1.4 | . | 3.3 | 0.5

Whole records, quoted from the list. Order of values: AF4-AF9 inh	E coli growth	Vif A3G	HNF4A DNA FP	FGF22 binding	RanGTP-Impb inh	UCH37 inh
CC(=O)OC(C(=O)NC1CCCCC1)c1ccccc1F (centres undefined) in the list: -6.8	0.66	3%	3.3	i	0.0	3.3
CCOC(=O)N1CCN(CC(O)COc2ccc(OC)cc2C(C)(C)C)CC1 (centres undefined) in the list: 2.8	0.69	-6%	-1.2	i	-3.5	2.6
CCCN1C=CC(=CC=C(C#N)C#N)C=C1 in the list: 7.5	0.67	5%	121	i	34*	38*

An excerpt from above, reduced to FGF22 binding.
mol | FGF22 binding
CCCN1C=CC(=CC=C(C#N)C#N)C=C1 | i
Cc1cc(C)cc(N(C(=O)c2ccc(Br)o2)C2C=CS(=O)(=O)C2)c1 (centres undefined) | i

The list continues.
SMILES | AF4-AF9 inh | E coli growth | Vif A3G | HNF4A DNA FP | FGF22 binding | RanGTP-Impb inh | UCH37 inh
O=C(Cc1cccc2ccccc12)NCC1CCCO1 (centres undefined) | . | 0.76 | 3% | -0.9 | . | -2.5 | 3.4
COC(OC)c1ccnc(SCc2ccccc2Cl)n1 | -0.9 | 0.63 | 20% | 0.9 | i | -0.9 | 2.0
O=C(Cc1ccc(S(=O)(=O)N2CCOCC2)s1)Nc1ccc2c(c1)CCC2 | . | 0.72 | -3% | 0.4 | . | -1.5 | 3.3
O=C(CN1CCN(c2ccccc2F)CC1)c1ccc2cc[nH]c2c1 | -2.2 | 0.73 | 6% | -0.9 | i | 0.3 | -6.1
O=C(CSc1nc(O)cc(=O)[nH]1)N1CCOCC1 | -3.7 | 0.71 | . | 2.7 | i | 2.7 | 4.4
